# Mtb growth: M. tuberculosis H37Rv growth inhibitors, H37Rv strain (AID 1626). M. tuberculosis H37Rv growth inhibition; higher % means a stronger effect. inhibition, % at 10 µM; hits with a dose series show IC50 in µM. 220,000 tested, 0.95% active;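 active = confirmed in a dose series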;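 also: bacteria incubated seven days before Alamar blue readout; 0% = bacteria only wells and 100% = bacteria with antibiotic wells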
# YopH inh: YopH tyrosine phosphatase inhibitors, primary screen, biochemical, fluorescence Ex485/Em525; inhibition, %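 (about 10 µM by stock and volumes)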; YopH tyrosine phosphatase [Yersinia enterocolitica]; AID 898, 2007; 140,000 tested, 0.16% active;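 active = inhibition of 50% or more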;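 also: controls were vehicle for no effect and minimum signal wells for full effect; inactives centre near -20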
# Mtb betalactam: beta-lactam sensitization of Mtb H37Rv, H37Rv; 330,000 tested, 0.27% active; inhibition, % at 25 µM; M. tuberculosis H37Rv growth with meropenem, percent inhibition; hits of this screen are not shown here; AID 434955, 2010;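 active = about 74% or more and at least 40 points above the plate without the antibiotic, then above 30% in a dose series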;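 also: growth measured after seven days incubation then overnight dye step; 0% = bacteria only wells and 100% = bacteria with antibiotic; twin plates without the antibiotic show which effects depend on it; some results filed as inactive read as strong as hits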
# RecA splice inh: Mtb RecA intein splicing inhibitors, primary screen, biochemical, fluorescence, HTS; Protein RecA (Mycobacterium tuberculosis (strain ATCC 25618 / H37Rv)), P9WHJ3; cell-free RecA intein splicing; 290,000 tested, 0.75% active; inhibition, %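 (about 9 µM by stock and volumes)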; in the data active = inhibition above about 30%;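 also: 0% = vehicle wells and 100% = reference inhibitor control wells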
# Target sequence (P9WHJ3 whole entry, looked up, canonical isoform): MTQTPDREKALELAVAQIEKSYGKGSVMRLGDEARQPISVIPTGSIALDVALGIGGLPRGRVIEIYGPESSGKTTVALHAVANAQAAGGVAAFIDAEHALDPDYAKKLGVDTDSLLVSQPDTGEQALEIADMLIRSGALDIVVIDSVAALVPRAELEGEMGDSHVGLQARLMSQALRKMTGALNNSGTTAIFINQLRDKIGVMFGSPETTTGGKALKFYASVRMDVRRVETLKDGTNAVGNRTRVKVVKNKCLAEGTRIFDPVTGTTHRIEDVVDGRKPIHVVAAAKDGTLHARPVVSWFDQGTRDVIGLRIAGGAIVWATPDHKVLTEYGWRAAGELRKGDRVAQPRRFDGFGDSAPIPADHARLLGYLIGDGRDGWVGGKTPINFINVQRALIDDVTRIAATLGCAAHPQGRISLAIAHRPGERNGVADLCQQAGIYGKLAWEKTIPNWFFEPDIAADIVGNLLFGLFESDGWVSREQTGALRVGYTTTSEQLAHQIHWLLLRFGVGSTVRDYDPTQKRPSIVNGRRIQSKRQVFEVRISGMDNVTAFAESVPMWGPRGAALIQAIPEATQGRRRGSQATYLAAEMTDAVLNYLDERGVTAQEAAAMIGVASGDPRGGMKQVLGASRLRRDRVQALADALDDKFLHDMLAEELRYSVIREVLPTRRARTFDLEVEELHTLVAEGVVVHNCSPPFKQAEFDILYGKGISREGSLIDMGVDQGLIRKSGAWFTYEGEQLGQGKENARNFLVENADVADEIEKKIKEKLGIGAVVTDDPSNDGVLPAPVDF
# Arbovirus anti: antivirals against arbovirus infection, primary screen, cell-based, full library, 10K replicate subset | arbovirus infection cell-based antiviral screen | inhibition, % at 10 µM | 200,000 tested, 0.37% active | AID 1251, 2008;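 active = inhibition from about 30%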;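 also: bluetongue infection of BSR cells; cell survival read as ATP light after 72 h; 0% = infected wells without compound and 100% = uninfected wells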
# Arbovirus anti repeat: second read-out of Arbovirus anti, no call of its own (marks repeat the call); inhibition, %; measured here: 10K subset replicate screen; many hits read low in the repeat;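 first of two repeat runs on a subset; 0% = infected and 100% = uninfected wells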
# Starred values were filed as active, the others as inactive; . = no result given.
SMILES,Mtb growth,YopH inh,Mtb betalactam,RecA splice inh,Arbovirus anti,others
NS(=O)(=O)c1ccc2nc(NC(=O)Nc3ccccc3F)sc2c1,.,.,-1,-0.5,.,
COc1cccc(CC2(CO)CCCN(Cc3ccc(CO)o3)C2)c1 (stereo not given),3%,.,-6,-4.7,-5,
Cc1ccccc1CN1C(=O)CSc2ccc(C(=O)N3CCOCC3)cc21,2%,-33,-4,0.7,1,
CC(C)Oc1ccc(C(=O)NCCCNC(=O)c2ccccn2)cc1,.,.,-7,0.0,.,
COc1ccc(/C=C/C(=O)NC(=S)Nc2cc([N+](=O)[O-])ccc2O)cc1OC,1%,.,-1,0.7,6,
O=C(CC1OC(=O)c2ccccc21)Nc1ccccc1N1CCOCC1 (stereo not given),5%,-25,-1,5.6,7,
CN(Cc1ccccc1)C(=O)c1cccnc1,.,.,3,-0.2,.,
O=C(CSCc1ccc([N+](=O)[O-])cc1)N/N=C/c1cccnc1,-13%,.,1,38*,-4,
CCCCn1c(N)c(N(CC(C)C)C(=O)c2cc(C)oc2C)c(=O)[nH]c1=O,.,.,-7,1.1,.,
COc1cc(S(=O)(=O)N2CCCCCC2)ccc1-n1cnnn1,7%,-5,-1,-0.3,13,
Cc1c(NC(=O)C(=O)/C=C(\O)c2ccc(Br)cc2)c(=O)n(-c2ccccc2)n1C,-9%,-25,5,2.9,5,
CC1CCCC(C)N1S(=O)(=O)c1ccc(S(=O)(=O)NCCc2ccncc2)cc1 (stereo not given),0%,-1,0,-0.2,0,
COC(=O)c1ccc(Nc2nnc(-c3ccc(C)c(S(=O)(=O)NCC4CCCO4)c3)c3ccccc23)cc1 (stereo not given),2%,-45,3,-0.9,-12,
CC(C)c1ccc(-c2c(NCCc3ccccc3)c(=O)c2=O)cc1,.,.,7,-1.2,.,
COc1ccc(-c2cnc(N)nc2-c2ccc(OC)cc2)cc1,.,.,2,-2.7,.,
O=C(OCCN1C(=O)c2ccccc2C1=O)c1cccs1,3%,-39,9,2.5,5,Arbovirus anti repeat=2
Cc1cc(C)n2nc(CNS(=O)(=O)c3ccc([N+](=O)[O-])cc3)nc2n1,.,.,2,-2.7,.,
CCc1c(C)nc2ncnn2c1NCCc1ccc(Cl)cc1,-2%,.,-4,1.3,10,
Cc1ccc(NC(=O)Cn2nnc3ccccc3c2=O)cc1,-2%,.,-2,1.7,6,
COc1ccc(CC(NC(C)=O)C(=O)N2CCN(C(=O)Nc3cccc(F)c3)CC2)cc1OC (stereo not given),-2%,.,-1,-2.1,-2,
C#Cc1ccc([C@@H]2C=C(C(=O)N3CCN(Cc4ccc5c(c4)OCO5)CC3)O[C@H](OCCCCO)C2)cc1,.,.,9,7.2,-9,
CC1=CC(=C2C(=O)NC(=O)NC2=O)C=C(C(F)(F)F)N1C(C)C,-8%,-38,-19,0.4,2,Arbovirus anti repeat=3
CCC(=O)N1CCc2cc(S(=O)(=O)NCCC(=O)N3CCN(c4cccc(OC)c4)CC3)ccc21,.,.,-5,-1.9,.,
CC1CN(/C=C/C=O)C(C)CC1OC(=O)c1ccccc1 (stereo not given),.,.,-8,-3.0,.,
CCC/C=N/NC(=O)c1[nH]c2c([N+](=O)[O-])cccc2c1C,50%,-25,0,0.0,-12,
Oc1ccc(N=Nc2c(O)ccc3ccccc23)cc1,34%,-5,97,0.5,-12,
Cc1ccc(S(=O)(=O)N2CCOCC2)cc1NC(=O)c1cc2c(s1)CCC2,-1%,-18,-24,1.5,-6,
CN(c1ccccc1)S(=O)(=O)c1ccc(C(=O)NCc2cccs2)cc1,-11%,.,-6,-3.2,.,
CCn1c(N2CCN(S(=O)(=O)c3ccccc3C(F)(F)F)CC2)nc2ccccc21,2%,-43,-5,5.1,-6,
CCOc1ccc(CCNS(=O)(=O)c2ccc3c(c2)NC(=O)CO3)cc1OCC,.,.,-7,-0.7,.,
CCc1ccc(-n2c(=S)sc3c(=O)n(-c4ccccc4OC)c(=S)[nH]c32)cc1,5%,.,5,0.6,10,
C/C(=N/NC(=O)c1cc(-c2ccc(Br)s2)[nH]n1)c1ccco1,-4%,.,61,-2.6,-2,
FC(F)Sc1ccc(Nc2ncnc3nc[nH]c23)cc1,3%,-9,5,-2.2,4,Arbovirus anti repeat=-3
CC[C@H](C)[C@H](NC(=O)c1ccccc1)C(=O)Nc1ccc(S(=O)(=O)Nc2cc(C)nc(C)n2)cc1,0%,.,-11,1.9,.,
O=C(c1c[nH]c(=O)n(-c2ccccc2)c1=O)N1CCc2ccccc21,-3%,-23,-7,-0.1,2,
O=C(c1ccc(CNS(=O)(=O)c2ccccc2)cc1)N1CCN(Cc2ccccc2)CC1,-3%,-4,-1,-0.6,-3,
Cc1ccc(NC(=O)CSc2ncnc3ccccc23)cc1S(=O)(=O)N1CCOCC1,9%,.,12,0.3,.,
Cc1cc(C)n(-c2cc(O)c(-n3nc(C)cc3C)cc2O)n1,-5%,.,1,4.1,0,
Cn1cc(S(=O)(=O)NCc2cccs2)c(=O)n(C)c1=O,6%,-50,2,-6.5,9,
COc1cc(N(C)C)c([N+](=O)[O-])cc1C(=O)N1CCOCC1,-4%,.,1,-2.8,-5,
CCOC(=O)N1CCN(c2ccc(S(=O)(=O)N3CCOCC3)cc2[N+](=O)[O-])CC1,.,.,-10,-1.7,.,
O=C(CCn1c(=O)c2ccccc2n(CC(=O)N2CCN(c3ccccc3)CC2)c1=O)NCc1ccco1,7%,.,-5,-0.7,-1,
Cc1ccccc1C(=O)Nc1c(C)[nH]c(=O)[nH]c1=O,.,.,1,-1.8,.,
COc1ccc(NC(=O)CN(C)C(=O)CCc2ccccc2)cc1,.,.,-3,-0.4,.,
Cc1ccccc1NC(=O)c1csc2c1CCCC2,12%,2,4,5.3,2,
O=S(=O)(NCc1ccccn1)c1ccc(Cl)s1,5%,.,2,-7.4,-5,
Cc1cc(C(=O)Nc2c(C)n(C)n(-c3ccccc3)c2=O)cs1,-4%,-25,-1,-0.2,4,
CCN(CC)CCNS(=O)(=O)c1ccc(OC)c(Br)c1,6%,-23,-6,1.6,-2,

# A draw from above in order of SMILES length, rising.
SMILES,Mtb growth,YopH inh,Mtb betalactam,RecA splice inh,Arbovirus anti,others
O=C(c1c[nH]c(=O)n(-c2ccccc2)c1=O)N1CCc2ccccc21,-3%,-23,-7,-0.1,2,
CCC(=O)N1CCc2cc(S(=O)(=O)NCCC(=O)N3CCN(c4cccc(OC)c4)CC3)ccc21,.,.,-5,-1.9,.,
CC[C@H](C)[C@H](NC(=O)c1ccccc1)C(=O)Nc1ccc(S(=O)(=O)Nc2cc(C)nc(C)n2)cc1,0%,.,-11,1.9,.,

# An excerpt from the list above, as a working copy:
SMILES,Mtb growth,YopH inh,Mtb betalactam,RecA splice inh,Arbovirus anti,others
Cc1ccccc1C(=O)Nc1c(C)[nH]c(=O)[nH]c1=O,.,.,1,-1.8,.,
COc1ccc(NC(=O)CN(C)C(=O)CCc2ccccc2)cc1,.,.,-3,-0.4,.,
Cc1ccccc1NC(=O)c1csc2c1CCCC2,12%,2,4,5.3,2,
O=S(=O)(NCc1ccccn1)c1ccc(Cl)s1,5%,.,2,-7.4,-5,
Cc1cc(C(=O)Nc2c(C)n(C)n(-c3ccccc3)c2=O)cs1,-4%,-25,-1,-0.2,4,
CCN(CC)CCNS(=O)(=O)c1ccc(OC)c(Br)c1,6%,-23,-6,1.6,-2,

# Next section
SMILES,Mtb growth,YopH inh,Mtb betalactam,RecA splice inh,Arbovirus anti,others
CN(CCc1ccccn1)C(=O)CCC1CCCN(C(=O)c2c(F)ccc(F)c2F)C1 (stereo not given),.,.,-14,1.5,.,
CC(=O)Nc1ccc(NC(=O)CCCc2ccccc2)cc1,.,.,2,-0.8,.,
O=C1CN(C(=O)CSc2nnc(-c3ccccc3)n2Cc2ccc3c(c2)OCO3)c2ccccc2N1,7%,-31,0,1.5,6,
O=C(NC1CCSC1=O)c1ccccc1 (stereo not given),-11%,-6,-3,0.4,19,
CCC(=O)n1nc(-c2ccccc2)nc1SCC(=O)Nc1ccc(C)cc1,-9%,-30,24,0.8,26,
COc1ccc2c(C)cc(N3CCCCCC3)nc2c1,-1%,.,7,-0.7,0,
Cc1ccc(CNC(=O)c2ccc(N3CCC4(CC3)CC(c3ccccc3)=NO4)c(NC(=O)c3ccc(Br)cc3)c2)cc1,.,.,-1,1.3,.,
CCOc1ccccc1NC(=O)NNC(=O)c1ccc2ccccc2c1,.,.,5,-0.7,.,
COc1ccc(C(=O)COC(=O)Cn2[nH]c(=O)c3ccccc3c2=O)c(OC)c1,.,.,-6,-2.1,.,
Cc1cc(C)n(C(=O)c2ccc(NC(=O)C3CC3)cc2)n1,5%,-49,1,-4.8,-4,Arbovirus anti repeat=1
O=C(CN1CCOc2ccccc21)NC1CCN(Cc2ccccc2)CC1,-4%,-33,3,4.0,-2,Arbovirus anti repeat=-7
CC(N)(C(=O)O)c1cccc(OCc2cccc(Cl)c2)c1 (stereo not given),-15%,.,-15,2.4,.,
Cc1nc2ccccc2nc(C)c1=NO,-2%,-26,-2,-4.7,7,
CCCS(=O)(=O)N1CCCC(C(=O)NCCN(CC)c2ccccc2)C1 (stereo not given),-7%,-26,-4,-4.2,-7,
C=CCSc1nnc(NC(=O)COc2ccccc2)s1,6%,.,0,2.4,7,
O=C(c1cc(F)ccc1F)C1CCCN(CCCc2ccccc2)C1 (stereo not given),6%,.,1,0.3,-2,
O=C1NC(=O)N(c2ccc3c(c2)OCO3)C(=O)/C1=C/c1ccsc1,-1%,.,5,-1.6,4,
COC(=O)c1cn(NC(=O)Cc2ccc(Cl)cc2)c(=O)c2ccccc12,8%,-22,-4,0.0,3,
CCn1cc(CNC(=O)c2ccc(Cl)c([N+](=O)[O-])c2)c(C)n1,-1%,-22,-4,0.7,6,
COc1ccc(/C=N/Nc2ncc(Br)cn2)c(OC)c1,-3%,.,-6,-4.7,-1,
CS(=O)(=O)c1ncc(Cl)c(C(=O)Nc2ccc(OC(F)F)cc2)n1,.,.,100,79*,.,
CC(C)C(OC(=O)CCC(=O)Nc1nccs1)C(=O)NC1CCCCC1 (stereo not given),-8%,.,-2,-3.0,-4,
CCc1nnc(NC(=O)C2CCCN2S(=O)(=O)c2ccccc2)s1 (stereo not given),-2%,0,-3,-2.2,7,
Cc1ccc(C)c2nc(Cl)c(C#N)cc12,-2%,.,-9,1.1,0,
COc1ccc(C(=O)NC(=S)Nc2ccccc2N2CCN(S(C)(=O)=O)CC2)cc1OC,-3%,-48,-5,5.9,7,
CC(=O)c1ccc(N(C(=O)CNC(=O)c2ccco2)C(C(=O)NCC2CCCO2)c2ccccc2)cc1 (stereo not given),-3%,.,-4,-0.1,5,
Cc1cc(NC(=O)COC(=O)c2cccc(S(=O)(=O)N(C)C3CCCCC3)c2)no1,-2%,.,-5,2.0,.,
CCN(CC)C(=O)CCS(=O)(=O)c1cccc2nonc12,2%,.,4,-3.0,2,

# By substructure: the entries above containing a furan ring, fused or not
SMILES,Mtb growth,YopH inh,Mtb betalactam,RecA splice inh,Arbovirus anti,others
COc1cccc(CC2(CO)CCCN(Cc3ccc(CO)o3)C2)c1 (stereo not given),3%,.,-6,-4.7,-5,
CCCCn1c(N)c(N(CC(C)C)C(=O)c2cc(C)oc2C)c(=O)[nH]c1=O,.,.,-7,1.1,.,
C/C(=N/NC(=O)c1cc(-c2ccc(Br)s2)[nH]n1)c1ccco1,-4%,.,61,-2.6,-2,
O=C(CCn1c(=O)c2ccccc2n(CC(=O)N2CCN(c3ccccc3)CC2)c1=O)NCc1ccco1,7%,.,-5,-0.7,-1,
CC(=O)c1ccc(N(C(=O)CNC(=O)c2ccco2)C(C(=O)NCC2CCCO2)c2ccccc2)cc1 (stereo not given),-3%,.,-4,-0.1,5,

# Compound activity from PubChem BioAssay.

# The list is partial; rates above refer to the full screens.
